Compound activity from PubChem BioAssay.
CDC25B CDK2 inh: human CDC25B-CDK2/CyclinA binding inhibition | actives 0.72% (n = 94,000) | z-score (concentration not given with the values) | HTRF CDC25B-CDK2/CyclinA binding, anti-His/anti-Flag; stronger effect = higher value;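 note: score is relative to mean and SD of negative controls; strong numbers were not always called active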
TAR Tat displ: HIV-1 TAR-Tat binding disruption; HIV-1 TAR RNA, Tat peptide displacement FRET; stronger effect = higher value; z-score (no concentration beside the values); actives 0.6% (n = 100,000);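 note: score is relative to mean and SD of negative controls; some compounds called inactive have numbers as strong as hits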
Numbers without * were called inactive; · = no result given.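 Rule for the calls: active = z-score from 3 up in half or more of its runs; inactive = the rest.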

Values run as follows: CDC25B CDK2 inh, TAR Tat displ
Cc1cc(NC(=O)CSc2cn(CC(=O)N3CCC(C)CC3)c3ccccc23)no1
  ·, -0.09
CCCn1c(=O)c2sccc2n2c(CCCC(=O)NCc3ccco3)nnc12
  ·, -0.37
Cc1ccc(-c2ocnc2C(N)=O)cc1
  -1.4, ·
Cc1ccc2nc(C)c(Cc3nnc(SCC(=O)NC(C)C)n3C)c(=O)n2c1
  1.1, -1.1
Cc1cc(C)cc(OCc2cc(=O)n3c4c(sc3n2)CCCC4)c1
  -1.1, 2.2
CC1=C(C(=O)NC(C)c2ccccc2)C2(CCC(C)CC2)OC1=O (configuration not stated)
  -1.6, -0.61
CCOc1ccc(NC(=O)N2CCCn3nc(-c4cccn4C)cc32)cc1
  ·, 0.43
Cn1c(=O)oc2cc(S(=O)(=O)N3CCc4nc(-c5ccccc5)sc4C3)ccc21
  ·, 1.4
Cc1cc(N2CCCCC2)nc(C)n1
  -1.9, 0.03
COc1ccccc1-n1c(=O)c(C#N)cc2c(=O)n3ccccc3nc21
  1.1, -0.25
Cc1ccc(N2C(=O)CC(NC3CCCC3)C2=O)cc1 (configuration not stated)
  -0.48, -0.5
CC1(C)CC(=O)C2=C(C1)Nc1n[nH]c(-c3ccc(Cl)cc3)c1C2c1ccccc1 (configuration not stated)
  ·, -0.05
CCCCCn1c(=O)c2c(nc3n2CCN3c2ccc(Cl)cc2)n(C)c1=O
  ·, 1
COc1ccc(NS(=O)(=O)c2cc(-c3cnc(C)o3)ccc2OC)c(OC)c1
  ·, 2
Cc1ccc(C)c(Cn2nc(-c3ccc(C)c(S(=O)(=O)N4CCCCC4)c3)ccc2=O)c1
  0.85, 1.3
Oc1ccc(Cl)cc1-c1ccnc2cc(-c3ccccc3)nn12
  0.79, 1.2
Cc1ccc(-n2c(=O)c3sccc3n(Cc3cc(=O)n4cc(Cl)ccc4n3)c2=O)cc1
  -1.4, ·
CCC(C)c1nn2c(=O)c(NC(=O)c3ccccc3C)cnc2s1 (configuration not stated)
  -1.2, -1.2
O=C(NC1CCCC1)c1ccc2c(c1)N(Cc1ccc(F)cc1)CCS2
  -1.2, 1.4
CCCc1nc2c(C)cc(-c3nc4ccccc4n3C)cc2n1Cc1ccc(-c2ccccc2C(=O)O)cc1
  ·, 1.7
COc1ccc(NC(=O)c2cnc3ccc(C)cn3c2=O)cc1OC
  -2.4, 0.76
CCC(CO)NC(=O)c1cc2c(n(-c3ccc(Cl)cc3)c1=O)CC(C)(C)CC2=O (configuration not stated)
  0.18, 0.91
CS(=O)(=O)Nc1ccc(-c2noc(-c3cc4cc(Cl)ccc4[nH]3)n2)cc1
  ·, 1.3
CCC(CCC(C)[C@H]1CCC2C3CC=C4C[C@@H](O)CC[C@]4(C)C3CC[C@@]21C)C(C)C (some centres not stated)
  ·, 2.9
CCNC(=O)Nc1sc2c(c1C(=O)OCC)CC(C)(C)OC2
  0.45, -0.45
Cc1c(-c2ccccc2)nc2ccccc2c1C(=O)N1CCCC1
  -2.4, ·
O=c1c2cccnc2n(Cc2ccc(F)cc2Cl)n1-c1ccccc1
  -1.3, 2.8
COC(=O)c1cc2sccc2n1Cc1cc(=O)n2ccccc2n1
  -2.3, -1.5
CCCCSCCCNC(=O)C1=C(C)C(=O)OC12CCC(C)CC2 (configuration not stated)
  0.18, 0.52
CC(=O)N1c2ccccc2NC2=C(C(=O)CC(C)(C)C2)C1c1cccc(Br)c1 (configuration not stated)
  -1.8, ·

Following part:
Values run as follows: CDC25B CDK2 inh, TAR Tat displ
Fc1ccc(CSc2nc3ncc(Br)cc3[nH]2)c(Cl)c1
  -4.8, 0.8
CN1CCC(N(Cc2ccco2)S(=O)(=O)c2ccc3c(c2)C(C)(C)C(=O)N3C)CC1
  ·, 0.14
CCOC(=O)c1cnc(SCc2c(F)cccc2Cl)nc1N
  ·, 0.81
O=C(CSc1nc2ncccc2[nH]1)c1ccc(Br)cc1
  -10, -0.59
O=C1CSc2ccc(S(=O)(=O)N3CCOCC3)cc2N1Cc1ccncc1
  ·, -1.4
CCN1CCN(C(=O)C2CCN(S(=O)(=O)c3ccc4[nH]c5c(c4c3)CCCCC5)CC2)CC1
  ·, 0.93
COc1ccc2cc3c(N)nn(C(=O)Cn4nc(C)c([N+](=O)[O-])c4C)c3nc2c1
  0.87, ·
CCOC(=O)N1CCC(NC(=O)c2cn(C)c3ccc(S(=O)(=O)N(C)C)cc3c2=O)CC1
  -0.47, 0.23
O=C(Oc1ccc2c(=O)c(-c3ccccc3)coc2c1)c1cccs1
  -0.34, ·
COc1ccc(Cl)cc1NC1c2ncccc2C(=O)N1c1ccccc1 (configuration not stated)
  ·, 1.1
Cn1c(C(=O)NCc2ccc(F)cc2)cc2sccc21
  -3.7, ·
CCC(Cc1ccccc1)NS(=O)(=O)c1c(C)nc2sccn2c1=O (configuration not stated)
  ·, 1.6
COc1ccccc1CNC(=O)CCn1nc(-c2ccccc2)ccc1=O
  -4.1, ·
Cc1oc(C(C)(C)C)cc1C(=O)/C(C#N)=C/Nc1ccccc1
  0.26, ·
CC1(C)CC(=O)C=C(Nc2cc(-c3ccccc3)[nH]n2)C1
  0.48, ·
Cc1c(NS(=O)(=O)c2ccc(C(C)C)cc2)c(-n2cnnc2)nn1C
  -1.6, 0.79
CC(=O)N1c2ccccc2CC1C(=O)NCCN1CCCC1 (configuration not stated)
  ·, 0.63
Cc1ccc2nc3c(cc2c1)c(NS(=O)(=O)c1ccccc1)nn3CC(C)C
  -0.03, 0.96
Cc1cc(NC(=O)CSc2nc(-c3ccccc3)c(C#N)c(=O)[nH]2)no1
  -0.48, -0.1
CNC(=O)CCC(=O)N1CC(C)Oc2ccccc21 (configuration not stated)
  -0.4, -1.6
COCCOC(=O)C1=C(C)NC2=C(C(=O)C(C(=O)OC)C(C)C2)C1c1ccccc1F (configuration not stated)
  0.51, 1.1
C=CCOC(=O)C1=C(C)Nc2[nH]c(=O)[nH]c(=O)c2C1c1ccccc1 (configuration not stated)
  -2.6, ·
COc1ccc(-c2n[nH]c3c2C(c2cccnc2)N(C)C3=O)cc1 (configuration not stated)
  -0.37, -0.8
C1=C(CCNc2nc(N3CCOCC3)nc(N3CCOCC3)n2)CCCC1
  -2.1, ·
O=C(O)CCc1ccc(-c2ccc(F)cc2)n1Cc1ccco1
  -2, -0.96
CC1=C(C(=O)OC2CCCC2)C(c2coc3ccc(C)cc3c2=O)C2=C(CCCC2=O)N1 (configuration not stated)
  -1.2, 0.88
Cc1cc(Nc2ccccc2)n2cnnc2n1
  2, 1
COc1ccc(Cl)cc1NC(=O)c1noc2c1CSc1ccccc1-2
  0.11, 1.1
CCS(=O)(=O)N1CCC(C(=O)NCCCN2CCOCC2)CC1
  ·, 0.76
Cc1ccc(Nc2nc3ccccc3c3nnc(C)n23)cc1C
  0.01, -0.49

Part of the list above, field by field.
Cc1ccc(-n2c(=O)c3sccc3n(Cc3cc(=O)n4cc(Cl)ccc4n3)c2=O)cc1
  CDC25B CDK2 inh: -1.4
  TAR Tat displ: ·
CCC(C)c1nn2c(=O)c(NC(=O)c3ccccc3C)cnc2s1 (configuration not stated)
  CDC25B CDK2 inh: -1.2
  TAR Tat displ: -1.2

New compounds follow.
Values run as follows: CDC25B CDK2 inh, TAR Tat displ
CCNCCNC(=O)c1c(O)c2cccc3c2n(c1=O)CCC3
  ·, 0.21
CC(C)c1ccc(NC(=O)CN2N=NC3C(=O)N(c4ccc(Br)cc4)C(=O)C32)cc1 (configuration not stated)
  ·, 0.12
CC1=CC(C)C(C2OC(C)CC(C)(C)O2)C(C)C1 (configuration not stated)
  -1.6, ·
Cc1ccc2onc(CNC(=O)NCc3ccc(F)cc3)c2c1
  ·, -1.1
CC1(C)CC(=O)C=C(NCc2cccs2)C1
  -1.4, ·
O=c1[nH]c(SCCCCOc2ccccc2)nc2c1CCCC2
  -1, 1
C=CCn1c2ccccc2n2cc(-c3ccc(Br)cc3)nc12
  -1.6, ·
COc1ccc(C2c3c(oc4ccc(F)cc4c3=O)C(=O)N2Cc2ccc3c(c2)OCO3)cc1 (configuration not stated)
  -1.3, 0.67
COC(=O)c1cnn(-c2ccc(Cl)cc2)c1C=C(C#N)C#N
  -1.3, ·
CCCc1cc(=O)n2nc(N(C)CC(=O)NC3CC3)sc2n1
  -0.99, 0.2
O=C(Nc1ccccc1C(=O)N1CCCC1)C1=CSCCO1
  ·, 1.5
O=c1cc2nc(-c3ccccc3Cl)nc(SCCCOc3ccccc3)n2[nH]1
  ·, -1
CCOc1ccc(OCC)c(NS(=O)(=O)c2ccc3c(c2)oc(=O)n3C)c1
  -1.6, ·
O=C(O)c1cc(NC(=O)c2ccccc2-c2ccccc2C(=O)O)cc(C(=O)O)c1
  -1.2, ·
CC(C)CC(NC(=O)C1CCC(C)CC1)C(=O)Nc1ccc2c(c1)OCO2 (configuration not stated)
  -0.68, 1.9
Cc1c(C(=O)O)ccc2c1NC(c1ccc(C(C)C)cc1)C1CC=CC21 (configuration not stated)
  0.84, 2.1
CCn1cc(C(=O)N2CCN(Cc3ccc4c(c3)OCO4)CC2)c(=O)c2ccc(C)nc21
  -2.1, ·
Cn1c(=O)c2c(nc(SCC(=O)Nc3ccc(F)cc3)n2C)n(C)c1=O
  0.98, 1.4
CCOC(=O)c1c(NC(C)=O)sc(C(=O)CC)c1C
  -2, -0.03
O=C(Nc1cc(C(F)(F)F)ccc1N1CCOCC1)c1cccnc1Oc1ccccc1
  -2.5, ·
COc1cc(NC(=O)C(=O)NC2CC(C)(C)NC(C)(C)C2)c(OC)cc1Cl
  -0.28, 0.4
COCCNc1nc(NCc2ccc(C)cc2)c2cnn(C)c2n1
  ·, 0.59
Cc1ccc2[nH]c3c(=O)n(CC(=O)N(CC(C)C)CC(C)C)ncc3c2c1
  ·, 0.49
CCCOc1ccc(C2C(C#N)=C(N)Oc3n[nH]c(C(C)(C)C)c32)cc1 (configuration not stated)
  -0.5, 1.4
Cc1cc(NC(=O)CSc2nnc3c4ccccc4n(C)c3n2)no1
  -2.2, -1.1
O=C(CCC(=O)N1Cc2ccccc2Oc2ncccc21)NC1CC1
  ·, 0.57
CSc1ccc(C2CC(=O)Nc3c(-c4ccccc4)csc32)cc1 (configuration not stated)
  ·, 2.3
CCOC(=O)c1c(C)oc2ncnc(NCCOC)c12
  ·, 0.06
Cn1c(=O)c2c(-c3ccccc3Cl)c(NCc3ccccc3)oc2n(C)c1=O
  ·, 0.84
O=C1c2ccccc2-c2nc3ncnn3c(-c3ccc(F)cc3)c21
  -0.82, 0.77

Complete entries, quoted from the list. Values in the order: CDC25B CDK2 inh	TAR Tat displ
Shown for O=C(O)c1cc(NC(=O)c2ccccc2-c2ccccc2C(=O)O)cc(C(=O)O)c1 = -1.2	·
Shown for Cc1ccc2onc(CNC(=O)NCc3ccc(F)cc3)c2c1 = ·	-1.1

Following part.
Values run as follows: CDC25B CDK2 inh, TAR Tat displ
Cn1c(=O)c2c(SCC(=O)NC3CCCC3)nc(-c3cccs3)nc2n(C)c1=O
  -0.53, ·
C=CCn1c(N2CCN(c3ccccc3)CC2)nc2c1c(=O)n(C)c(=O)n2C
  -1.1, ·
O=C(O)CCc1nnc2ccc(NCc3ccc(Cl)cc3)nn12
  2.1, 0.61
CCC12CN3CC(CC)(CN(C1)C3C1CCCCC1)C2=O (configuration not stated)
  -0.54, 0.46
c1csc(-c2ccc(N3CCOCC3)nn2)c1
  ·, 0.74
CCc1cc(=O)oc2cc(C)c3c(-c4ccc(F)cc4)coc3c12
  -1.5, ·
CCOC(=O)C1CCN(c2ccc(C(C)=O)cc2NC(=S)Nc2cc(Cl)ccc2Cl)CC1
  -1.7, ·
CC1=C(c2ccc(C)c(C)c2)S(=O)(=O)N=C1Nc1ccc(C)cc1
  -2.2, -0.36
CN(C(=O)[C@H]1[C@@H]2C[C@@H]3[C@H]1C(=O)O[C@@H]3C2)c1ccccc1
  -2, -0.61
COC(=O)c1ccccc1N(C)C(=O)c1cc(OC)c(OC)c(OC)c1
  -0.36, ·
Cc1ccc2c(c1)NC(SCC(=O)NC1CCCCC1)=NS2(=O)=O
  ·, 2.2
O=C(CC1(O)C(=O)N(Cc2ccccc2)c2ccccc21)c1ccccc1 (configuration not stated)
  -1.1, ·
CS(=O)(=O)c1ccc2nc(NC(=O)Nc3ccccc3Cl)sc2c1
  -1.4, 1.3
COC(=O)c1c(NC(=O)c2cc(-c3cccs3)on2)sc2c1CCC2
  -1.4, 1
CC1CCN(CC2CCN(C(=O)NC(C)C)CC2)CC1
  ·, 0.96
CSc1nn(-c2ccccc2)cc1C(N)=O
  0.02, ·
COc1cccc(NC(=O)Nc2nc3ccc(S(C)(=O)=O)cc3s2)c1
  -2.1, 0.18
CC1(C)CC(=O)C2=C(C1)OC(N)=C(C#N)C2c1ccccc1 (configuration not stated)
  0.67, ·
Cc1ccccc1OCC(=O)Nc1ncc(S(=O)(=O)c2ccc([N+](=O)[O-])cc2)s1
  -0.19, ·
COCCCNc1c(-c2cc(C)c(C)cc2C)c(=O)c1=O
  ·, -0.16
CCc1nc(SCC(=O)O)n[nH]1
  -0.97, -0.08
CCOc1ccc(NC(=O)C2C3C=CC4(O3)C2C(=O)N(C(C)C)C4C(=O)NC2CCCCC2C)cc1 (configuration not stated)
  -0.18, 0.19
CS(=O)(=O)/N=C(\N)c1ccncc1
  -0.95, ·
Cc1c(NC(=O)Cc2csc(NC(=O)Nc3ccccc3)n2)c(=O)n(-c2ccccc2)n1C
  ·, 3.1
Cc1nn2c(=O)cc(CSc3nnc(-c4ccccc4)o3)nc2s1
  -0.73, -0.42
CCOC(=O)c1ccccc1-n1nnc2c(sc3nc(C)cc(COC)c32)c1=O
  -1.3, -0.29
